# Assay outcomes (PubChem BioAssay)
# PrP UTR inh – inhibition of PrP 5' UTR reporter expression; 340,000 tested, 0.35% active; cell-based PrP 5' UTR mRNA reporter, plate reader; inhibition, % (concentration not given with the values);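 active = every replicate at 50% or more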;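 also: 0 = median of the neutral control wells; tested in H4 reporter cells; numbers are from one replicate; inactives centre near -14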
# BJeLR lethal – kills HRASV12-expressing BJeLR cells. 300,000 tested, 0.17% active. BJeLR (HRASV12) viability, CellTiter-Glo ATP luminescence, 48 h; reference of the scale not given here. inhibition, % (test concentration not listed);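 active = replicate mean above 50%; inconclusive = above 50% but judged a plate artefact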;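 also: 50 nL library stock added to about 25 µL; numbers are from one replicate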
# ugtP null kill – growth inhibition of S. aureus ugtP deletion strain; S. aureus RN4220 ugtP deletion, OD600 growth, 16 h; some inactives read as strong as hits; 330,000 tested, 0.54% active; growth inhibition, % (no concentration beside the values);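 active = z-score under -3 and OD600 up to 0.15 on both plates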;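 also: plate controls were untreated wells for no effect and antibiotic for full effect; wells of about 80 µL received 100 nL stock; the first replicate is given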
# Mtb hypoxia inh – Mtb hypoxia fluorescent reporter inhibition; M. tuberculosis hypoxia-regulated fluorescent reporter, fluorescence; fluorescence inhibition, % (concentration not given with the values); 300,000 tested, 0.1% active; AID 1159583;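 active = 35 to 45% if threefold the growth effect, above 45% if 1.5-fold the growth effect; inactive = the rest, general growth blockers included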;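 also: wells of about 50 µL received 100 nL stock; 0% = vehicle wells and 100% = reference inhibitor wells; whole bacteria with a GFP reporter of the hypoxia response; strong numbers were not always called active; many hits fall short of the cut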
# Bead autofluor – compound fluorescence in toxin protease inhibitor counterscreen; fluorescence intensity (test concentration not listed); compound autofluorescence counterscreen, microsphere flow cytometry; hits give high values; AID 624483; 360,000 tested, 3.1% active;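 active = at least 3 SD above the mean of all compounds, about 16000 in these data; inconclusive = too few beads counted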;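 also: 100 nL of 1 mM stock went into each well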
# Sa RN4220 lethal – kills Staphylococcus aureus RN4220 | 330,000 tested, 0.33% active | inhibition, % (test concentration not listed) | AID 1259311 | S. aureus RN4220 growth, OD600, 16 h;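 active = z-score of -3 or lower and OD600 up to 0.18 on both plates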;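 also: plate controls were untreated cells for no effect and reference antibiotic for full effect; stock transfer was 100 nL into about 80 µL; one replicate is shown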
# Mtb hypoxia inh growth – also measured in Mtb hypoxia inh; calls as there; growth inhibition, %; measured here: M. tuberculosis growth (absorbance);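 0% = vehicle and 100% = reference antibiotic; read after six days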
# Starred values were filed as active, the others as inactive; ? = inconclusive; . = no result given; & = joins results of further samples.
SMILES,PrP UTR inh,BJeLR lethal,ugtP null kill,Mtb hypoxia inh,Mtb hypoxia inh growth,Bead autofluor,Sa RN4220 lethal
S=C(NCc1cccnc1)Nc1ccc(Oc2ccc(Cl)cc2)cc1,-11.3,0.4,-7.5,9.0,-2.5,.,7.8
CN(C)CC/C=C1\c2ccccc2Sc2cc(F)c(Cl)cc21,-8.7,0.7,-24.0,.,.,6374,-12.6
O=C(CSc1ncc(-c2ccccc2)[nH]1)Nc1ccccc1F,-48.9,4.2,9.8,-0.3,-4.5,4331,7.1
CCCOc1ccc(Cc2c(O)nc(SC)[nH]c2=O)cc1C,-18.1,-6.4,9.3,-0.4,3.5,3079,0.3
CCCNC(=O)N1[C@H]2CC[C@@H]1C(C(=O)OC)=C(c1cc3ccccc3o1)C2,-28.1,2.7,.,.,.,3685,.
OCC[n+]1ccc(/C=C/c2c[nH]c3ccccc23)cc1,-22.7,-5.8,.,.,.,5969,.
O=C(COC(=O)c1ccc(F)cc1F)Nc1cccnc1Cl,-25.9,.,2.0,23.9,47.6,8130,1.6
O=[N+]([O-])c1cccc(-c2csc(CS(=O)(=O)Cc3ccco3)n2)c1,.,-5.9,2.5,6.3,8.3,.,3.1
O=P(COCCCCCOCP(=O)(c1ccccc1)c1ccccc1)(c1ccccc1)c1ccccc1,-7.8,-2.7,-13.3,-16.5,18.6,4324,-2.4
Cc1cc(/C=N/NC(=O)C(=O)N2CCCC2)c(C)n1-c1cccc(Br)c1,-65.3,-4.1,.,.,.,2915,.
CCSc1cc(C2C(C(=O)OC)=C(C)NC3=C2C(=O)CCC3)c(C)o1 (configuration not stated),-34.9,3.8,4.0,-10.3,9.7,2769,6.3
COc1ccc(C2=Nn3c(nnc3-c3ccccn3)SC2)cc1,4.4,7.7,4.7,-7.1,-0.5,24133*,8.5
COc1cc(OC)c(C2Nc3ccccc3NC3=C2C(=O)CC(C)(C)C3)cc1OC (configuration not stated),-16.9,-6.9,5.2,-1.5,-5.5,3818,1.0
O=C(OCC1CCNCC1)c1ccc(F)cc1,-29.4,.,4.3,14.1,1.0,3019,4.7
Cc1ccccc1SC1CCN(Cc2nc(C3CC3)no2)CC1,-15.0,-5.0,21.7,19.9,8.6,2425,5.7
CCCOc1ccc2ccccc2c1/C=N/n1cnnc1,-15.9,-16.3,.,.,.,5603,.
Cc1cc(C)cc(OCC(=O)Nc2ccc(S(=O)(=O)Nc3ccccn3)cc2)c1,-25.2,6.3,-5.4,8.5,1.5,2265,9.7
COc1cc(S(=O)(=O)N2CCN(c3ccccc3)CC2)ccc1Cl,-28.7,6.5,6.8,1.2,5.2,5945,2.1
COc1cccc(NC(=O)CC2SC(=Nc3ccccc3)NC2=O)c1 (configuration not stated),-7.0,2.5,-4.2,2.6,10.4,2303,-17.7
O=c1ccc2cc3ccoc3cc2o1,-26.3,-3.4,5.1,.,.,5018,1.0

# Two compounds from above, showing only Mtb hypoxia inh growth and Bead autofluor.
structure | Mtb hypoxia inh growth | Bead autofluor
CCCOc1ccc(Cc2c(O)nc(SC)[nH]c2=O)cc1C | 3.5 | 3079
CCCNC(=O)N1[C@H]2CC[C@@H]1C(C(=O)OC)=C(c1cc3ccccc3o1)C2 | . | 3685

# Carrying on.
SMILES,PrP UTR inh,BJeLR lethal,ugtP null kill,Mtb hypoxia inh,Mtb hypoxia inh growth,Bead autofluor,Sa RN4220 lethal
CC(C)C(=O)NC(Nc1cccc([N+](=O)[O-])c1)C(Cl)(Cl)Cl (configuration not stated),4.8,-1.9,-19.3,8.4,8.7,2021,-1.3
O=C(O)c1ccc(-n2c(-c3ccccc3)n[nH]c2=S)cc1,-22.8,-13.6,13.4,10.5,-2.0,9205,6.5
COc1ccc(NS(=O)(=O)c2cc(NC(=O)/C=C/c3cccs3)ccc2N2CCOCC2)cc1,0.1,-18.3,-11.4,-17.8,0.9,2145,0.1
Cc1cccc(C)c1N(CC(=O)Nc1cccc(N(C)S(C)(=O)=O)c1)S(C)(=O)=O,43.1,2.4,-4.7,-0.4,-0.1,4092,-0.3
CCc1ccccc1NC(=S)N(Cc1ccco1)C(C)c1cccs1 (configuration not stated),-1.0,5.7,6.5,6.9,4.3,5227,16.7
CCS(=O)(=O)NCCc1csc(-c2ccc(OC)c(OC)c2)n1,8.3,-1.0,-3.7,-0.9,12.1,.,-0.4
O=C(Cn1cnc2ccccc2c1=O)N1CCN(S(=O)(=O)c2ccc(F)cc2)CC1,-9.4,.,3.4,0.4,-1.3,3105,4.1
CC(=O)Nc1ccc(C(=O)N/N=C/c2ccncc2)cc1,-18.0,-10.2,.,.,.,2875,.
NC(=O)C1=CC(c2csc3ccccc23)CC(OCc2ccc(CO)cc2)O1 (configuration not stated),.,.,13.5&8.0,2.9&10.1,5.4&6.8,.,9.0&8.0
N#C/C(=C\c1ccc(-c2cccc(C(F)(F)F)c2)o1)C(=O)Nn1cnnc1,3.4,-7.8,7.3,-1.2,-0.3,7668,2.9
Cc1ccc2c(c1)C1CN(C)CCC1N2C(=O)c1cccc(S(=O)(=O)N2CC(C)CC(C)C2)c1 (configuration not stated),-3.5,-4.3,.,.,.,4781,.
CCCC(c1nnnn1C1CCCC1)N1CCN(c2ccccc2F)CC1 (configuration not stated),-9.6,.,20.4,.,.,4756,6.2
COc1ccc(C2(C(=O)NCCCN(C)C)CCOCC2)cc1,-16.3,8.3,-3.8,-1.5,1.0,?,8.1
CCOC(=O)c1c(NC(=O)COc2ccccc2OCC)sc2c1CC(C)(C)NC2(C)C,-5.2,1.8,-26.7,7.2,7.4,?,-5.0
O=C(COC(=O)C1CSC2(c3ccc(F)cc3)CCC(=O)N12)NC(=O)NC1CCCC1 (configuration not stated),-33.4,-14.4,.,.,.,4438,.
Cc1cccc(C(=O)NNC(=O)/C=C/C(=O)O)c1,-17.5,-4.4,0.0,-6.3,1.3,1998,-0.8
Cc1ccc(S(=O)(=O)NC(=O)COc2ccccc2C(N)=O)cc1,-11.4,-1.9,-1.3,9.0,6.5,11447,5.3
Cc1cccc2cc(/C=N/NC(=O)[C@H]3C[C@@H]3c3ccccc3)c(Cl)nc12,-24.1,-3.5,.,.,.,4851,.
COCCCNC(=O)c1ccc2nc(Cc3ccc(OC)cc3)oc2c1,-49.6,-9.1,6.2,5.0,5.5,4084,2.0
COCCCC1CCN(C(=O)CCc2nnc(CCCCc3ccccc3)o2)CC1,-36.1,-2.5,-3.4,13.2,11.6,3287,8.8
COc1ccccc1N(CC(=O)NCc1ccc(F)cc1)C(=O)CCC(=O)Nc1nccs1,5.6,2.1,-2.4,1.9,0.6,2899,-0.1
COc1ccc(NC(=O)c2cnc(SCC(=O)NCCc3ccccc3)n(C)c2=O)cc1,-10.8,6.5,-3.6,0.1,6.4,6168,1.0
CN(CC(=O)NC1CCN(Cc2ccccc2)CC1)S(=O)(=O)c1ccc(Br)s1,-2.1,-5.4,9.6,4.5,1.0,3897,6.4
Cc1ccc(NC(=O)C2CCCN(S(=O)(=O)c3c(C)noc3C)C2)nc1 (configuration not stated),-16.0,8.3,7.8,.,.,4934,-1.3
O=C(O)/C=C/c1ccc([N+](=O)[O-])o1,-27.2,0.9,27.5,-14.0,-0.5,2887,2.7
COc1ccc(CNS(=O)(=O)CCNC(=O)c2ccc3c(c2)OCO3)cc1,-38.3,-3.2,9.9,-1.8,1.5,5863,5.0
COC(=O)CC/C(O)=C1\C(=O)CC(C)(C)CC1=NCc1nc2ccccc2[nH]1,-4.1,-14.0,3.3,7.7,6.6,4404,11.3
CCOc1ccccc1N1CCN(C(=O)c2cn(CC3CCCCC3)nn2)CC1,-12.3,2.6,0.2,2.2,1.4,6228,1.7
O=C(CSc1ccc(Cl)cc1)N1CCN(c2c(Cl)cccc2[N+](=O)[O-])CC1,-15.0,9.0,33.2,7.5,6.6,2487,-12.5
O=C(c1ccc(F)cc1)C1CCN(C(=O)NCc2ccccc2)CC1,7.9,3.9,5.3,5.7,0.0,24106*,5.6
COc1ccc(C(=O)N/C(=C\c2ccccc2)C(=O)Nc2ccc(C(=O)O)cc2)cc1,-5.9,0.4,-6.4,-7.1,-0.1,4688,1.2
O=[N+]([O-])c1cccc(S(=O)(=O)N2CCCCCC2)c1,-15.1,16.6,-5.1,3.9,10.0,2472,6.1
CCn1cc(CNC(=O)C2CCC(=O)N(Cc3ccccc3F)C2)cn1 (configuration not stated),-8.6,3.5,1.7,-11.6,1.5,5343,-2.6
Cn1cc(CC(=O)N2CCN(c3ccccc3F)CC2)c2ccccc21,-0.9,-7.7,-4.9,-5.3,-3.7,6069,5.8
Cc1c(C(=O)NCc2ccco2)oc2ccccc12,-6.2,0.5,0.7,24.1,15.1,2996,6.6
CN(C)c1ccc(C2CC(=O)OC3=C2C(=O)CC(C)(C)C3)cc1 (configuration not stated),-5.1,-2.8,8.6,12.1,5.0,1971,2.7
CCc1ccc(OCCCCN(C)Cc2ccccc2)cc1,-12.1,2.5,41.1,14.1,8.5,3123,-0.9
O=C(O)CCSc1nnc(SCC(=O)NC2CCS(=O)(=O)C2)s1 (configuration not stated),-7.2,.,0.3,4.9,0.1,2882,4.0
CCCCc1cn(C(CCCCN)C(=O)N2CCNCC2)nn1 (configuration not stated),.,.,3.4,8.7,6.3,.,0.4
C=CCOc1ccc(CN(C)CC(O)COc2ccc(CCC(C)=O)cc2)cc1 (configuration not stated),-18.5,-3.3,6.4,8.9,-7.8,3917,0.5

# Record cards, as listed above. Values in the order: PrP UTR inh	BJeLR lethal	ugtP null kill	Mtb hypoxia inh	Mtb hypoxia inh growth	Bead autofluor	Sa RN4220 lethal
# O=C(O)CCSc1nnc(SCC(=O)NC2CCS(=O)(=O)C2)s1 (configuration not stated) in the list: -7.2	.	0.3	4.9	0.1	2882	4.0
# O=[N+]([O-])c1cccc(S(=O)(=O)N2CCCCCC2)c1 in the list: -15.1	16.6	-5.1	3.9	10.0	2472	6.1
# CN(C)c1ccc(C2CC(=O)OC3=C2C(=O)CC(C)(C)C3)cc1 (configuration not stated) in the list: -5.1	-2.8	8.6	12.1	5.0	1971	2.7
# C=CCOc1ccc(CN(C)CC(O)COc2ccc(CCC(C)=O)cc2)cc1 (configuration not stated) in the list: -18.5	-3.3	6.4	8.9	-7.8	3917	0.5
# CCn1cc(CNC(=O)C2CCC(=O)N(Cc3ccccc3F)C2)cn1 (configuration not stated) in the list: -8.6	3.5	1.7	-11.6	1.5	5343	-2.6

# Additional compounds follow:
SMILES,PrP UTR inh,BJeLR lethal,ugtP null kill,Mtb hypoxia inh,Mtb hypoxia inh growth,Bead autofluor,Sa RN4220 lethal
CCCCOc1ccc(C(=O)NCC(=O)NCC2CCCO2)cc1 (configuration not stated),-11.2,1.9,2.1,3.4,2.9,?,4.4
COc1cccc(S(=O)(=O)N2CCOCC2)c1,-8.1,-0.1,2.2,-4.5,0.1,11614,1.1
NS(=O)(=O)c1ccc(C(=O)Nc2ccc(-c3nc4cccnc4s3)cc2)cc1,-71.6,1.6,10.4,0.1,1.5,3990,3.2
NC(=O)c1ccc(NC(=O)CCN=C2NS(=O)(=O)c3ccccc32)cc1,-13.7,-0.3,0.6,-1.6,10.8,?,1.0
Cc1sc2ncnc(SCC(=O)NNC(=O)COc3cccc4ccccc34)c2c1C,-16.1,1.9,-16.1,1.6,1.7,5895,10.6
CC(C)C(=O)Nc1nnc(SCC(=O)NCc2cccs2)s1,-5.1,-7.2,0.4,-5.2,8.2,3875,2.0
Cc1c(NC(=S)NC(NC(=O)C(C)C)C(Cl)(Cl)Cl)c(=O)n(-c2ccccc2)n1C (configuration not stated),-16.8,17.2,12.2,16.9,9.7,1980,7.9
CCN(C(=O)COC(=O)c1c(C)c(-c2ccccc2)nc2ccccc12)C1CCS(=O)(=O)C1 (configuration not stated),-25.3,-9.4,6.0,-14.3,4.8,4239,3.8
COc1cccc(-n2c(O)c(C=NCc3ccccn3)c3ccccc3c2=O)c1,-11.5,6.9,-4.4,-5.4,10.2,3960,0.2
CCc1ccc2nc(/N=C(\N)NC(=O)c3ccccc3)nc(C)c2c1,-31.3,-1.5,.,.,.,3797,.
CC(=O)c1cccc(NC(=O)CN2C=NS(=O)(=O)c3ccc(C)cc32)c1,-12.3,-20.0,4.5,16.1,10.8,5540,4.6
Oc1ccc(N=Nc2ccc3c(c2)OCCO3)c2cccnc12,17.3,17.1,4.5,-11.8,3.7,3812,11.8
O=C(NCc1ccc(Cl)s1)C1CCC(=O)N(CCc2cccc(F)c2)C1 (configuration not stated),-28.0,9.6,-1.4,4.5,-5.5,4051,1.0

# Compounds were not picked by outcome. About 4% of those tested had a hit in this group.
